Bioassay records from PubChem.
Autofluor counter = counter-screen for toxin protease inhibitors: compound fluorescence; compound autofluorescence counterscreen, microsphere flow cytometry; stronger effect = higher value; fluorescence intensity (concentration not given with the values); actives 3.1% (n = 360,000);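 active = at least 3 SD above the mean of all compounds, about 16000 in these data; inconclusive = too few beads counted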;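 note: 100 nL of 1 mM stock went into each well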
RN4220 kill = S. aureus RN4220 growth inhibition; OD600, 16 h; actives 0.33% (n = 330,000); inhibition, % (no concentration beside the values);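 active = z-score of -3 or lower and OD600 up to 0.18 on both plates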;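 note: plate controls were untreated cells for no effect and reference antibiotic for full effect; stock transfer was 100 nL into about 80 µL; one replicate is shown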
PrP UTR inh = inhibition of PrP 5' UTR reporter expression | cell-based PrP 5' UTR mRNA reporter, plate reader | inhibition, % (test concentration not listed) | actives 0.35% (n = 340,000) | AID 488862;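 active = every replicate at 50% or more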;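 note: 0 = median of the neutral control wells; tested in H4 reporter cells; numbers are from one replicate; inactives centre near -14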
BJeLR lethal = kills HRASV12-expressing BJeLR cells | BJeLR (HRASV12) viability, CellTiter-Glo ATP luminescence, 48 h; reference of the scale not given here | actives 0.17% (n = 300,000) | inhibition, % (no concentration beside the values);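 active = replicate mean above 50%; inconclusive = above 50% but judged a plate artefact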;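 note: 50 nL library stock added to about 25 µL; numbers are from one replicate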
Sa ugtP lethal = growth inhibition of S. aureus ugtP deletion strain; S. aureus RN4220 ugtP deletion, OD600 growth, 16 h; some inactives read as strong as hits; growth inhibition, % (concentration not given with the values); actives 0.54% (n = 330,000);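 active = z-score under -3 and OD600 up to 0.15 on both plates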;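 note: plate controls were untreated wells for no effect and antibiotic for full effect; wells of about 80 µL received 100 nL stock; the first replicate is given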
Mtb hypoxia rep = Mtb hypoxia fluorescent reporter inhibition. M. tuberculosis hypoxia-regulated fluorescent reporter, fluorescence. fluorescence inhibition, % (no concentration beside the values). actives 0.1% (n = 300,000). AID 1159583;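 active = 35 to 45% if threefold the growth effect, above 45% if 1.5-fold the growth effect; inactive = the rest, general growth blockers included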;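 note: wells of about 50 µL received 100 nL stock; 0% = vehicle wells and 100% = reference inhibitor wells; whole bacteria with a GFP reporter of the hypoxia response; strong numbers were not always called active; many hits fall short of the cut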
Mtb hypoxia rep growth = also measured in Mtb hypoxia rep; calls as there; growth inhibition, %; measured here: M. tuberculosis growth (absorbance);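 0% = vehicle and 100% = reference antibiotic; read after six days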
Active calls of the source: *; ? = inconclusive; nt = no result given.

SMILES	Autofluor counter	RN4220 kill	PrP UTR inh	BJeLR lethal	Sa ugtP lethal	Mtb hypoxia rep	Mtb hypoxia rep growth
Cc1ccccc1OCC(=O)Nc1ccc2c(c1)ncn2C	5910	5.5	-92	-2	2	5	2
CCC(Sc1ncccn1)C(=O)Nc1cc(C)on1 (stereo unspecified)	4450	2.4	-14	1	3	nt	nt
CCN1CCN(CC(=O)N2c3ccccc3CC2C)CC1 (stereo unspecified)	24267*	-6.9	-26	7	-9	-3	0
CC[C@@]12C(=O)N(c3ccc(OC)cc3)C(=O)N1[C@H](c1cccc(C)c1)[C@@H]1C(=O)N(Cc3ccccc3)C(=O)[C@@H]12	3537	-13	-19	6	-6	9	4
COC(=O)c1ccccc1OC(=O)c1cc[n+]([O-])cc1	2577	5.3	-13	-13	5	3	3
Cc1ccc2c(c1)N(CC(=O)Nc1c(C)cccc1C)C(=O)c1cccnc1O2	5010	1.8	-19	7	4	12	14
CCn1c(SCc2ccc(C(=O)OC)o2)nnc1-c1c[nH]c2ccccc12	5631	7.8	-3	4	7	nt	nt
Cc1ccc(-c2csc(NC(=O)c3cnccn3)n2)cc1C	4339	1.7	6	-2	8	-7	1
CC1C(=O)Nc2ccccc2N1C(=O)c1cccc(C(F)(F)F)c1 (stereo unspecified)	4183	2.1	-9	8	5	3	-6
O=C(CSC1=NS(=O)(=O)c2cc(F)ccc2N1)NCc1ccc(F)cc1	6109	0.7	-14	-13	7	-2	10
Cc1c(Cl)cccc1NC(=O)CSc1ccc(-c2cccnc2)nn1	4398	-1.6	nt	9	4	2	7
Nc1c(C(=O)N2CCOCC2)sc2nc3c(cc12)CCCC3	5257	3.5	54	-12	10	2	-4
CCOC(=O)C1C(=O)CC(C)(O)C(C(=O)OCC)C1c1ccc(OC)cc1 (stereo unspecified)	4828	2.2	-8	-3	0	nt	nt
COc1cc(Cl)c(C)cc1NC(=O)COC(=O)c1ccc(CN2CCCC2=O)cc1	?	-1.6	-4	nt	-1	-3	-8
CCn1c2ccccc2c2nnc(SCC(=O)Nc3ncccn3)nc21	21373*	1.9	-12	2	-3	5	6
O=C(N1CCCCC1)N1CCN(S(=O)(=O)c2cccc([N+](=O)[O-])c2)CC1	4924	1.1	-63	5	6	13	2
c1ccc(-n2ncc3c(N4CCCCC4)ncnc32)cc1	5347	7.2	20	3	1	12	14
C/C(=N\NC(=O)C1COc2ccccc2O1)c1cc2ccccc2o1 (stereo unspecified)	2717	nt	-31	-10	nt	nt	nt
CCOC(=O)C1=C[C@]2(CC)CCCN3CCc4c(n1c1ccccc41)[C@@H]32	4329	nt	-8	0	nt	nt	nt
COc1ccc(CNC(=O)C[C@H]2C[C@H](C(=O)N3CCCCC3)[C@@]3(CCc4ccccc4)c4[nH]c5cc(-c6ccco6)ccc5c4CCN3C2=O)cc1OC	4485	0.1	-2	nt	-9	1	6
O=C(NN=Cc1cccc(O)c1)c1ccccc1O	nt	1.4	nt	nt	9	-5	11
O=C(NCC1CCCN(C(=O)Cc2ccccc2Cl)C1)c1ccc(F)cc1 (stereo unspecified)	4138	2.9	-15	-9	7	0	-5
Cc1cc(C)c(N=Cc2c(O)[nH]c(=O)[nH]c2=O)c(C)c1	3377	3.4	-15	-3	9	17	10
COc1ccccc1NS(=O)(=O)c1ccc(Br)s1	4519	13	-24	-1	-7	8	4
COc1ccc(N2CCN(C(=O)c3ccccc3NC(=O)c3ccccc3)CC2)cc1	5293	2.0	-6	-4	5	-1	0
COc1cc(C(=O)NC2CCN(Cc3ccccc3)CC2)cc(Cl)c1OC	5231	1.9	-14	-2	4	16	5
CN(C)C(=O)CCc1ccc2c3c([nH]c2c1)[C@]1(CCC2CCCC2)[C@@H](C(=O)N2CCOCC2)C[C@H](CC(=O)NC(C)(C)C)C(=O)N1CC3	4084	-0.5	-8	nt	0	0	8
O=C(CSc1ccc(-c2ccccc2)nn1)N1CCN(c2ccccc2)CC1	9548	-0.6	-21	-1	6	5	9
Cc1cc(=O)oc2c(C)c(OC(C)C(=O)NC(Cc3c[nH]c4ccc(O)cc34)C(=O)O)ccc12 (stereo unspecified)	4163	1.4	-16	-2	5	nt	nt
COc1cccc(CNC(=O)CCS(=O)(=O)Cc2ccc(C)cc2)c1	5524	2.5	5	-2	-2	-2	3
CCC1(CC)NC(=O)N(CC(=O)N2CCN(c3ccccc3F)CC2)C1=O	8710	2.0	-9	nt	1	4	10
CCOc1ccc(NC(=O)CN(c2ccc(C)cc2)S(=O)(=O)c2c(C)nn(C)c2C)cc1	6090	3.6	-18	5	8	5	6
CN(CC(CC(=O)Nc1nncs1)c1ccccc1)S(=O)(=O)c1ccc(Br)cc1 (stereo unspecified)	6360	3.5	-6	-9	10	nt	nt
CC(=O)Oc1c(C)c(C)c2c(c1C)CCC(C)(CCCC(C)CCCC(C)CCCC(C)C)O2 (stereo unspecified)	5800	14	-20	nt	0	11	3
CCOC(=O)C1(Cc2cccc(Cl)c2)CCCN(C(=O)c2cc(C)[nH]n2)C1 (stereo unspecified)	5849	-1.8	-7	11	-5	-5	-3
COc1ccccc1-n1cnc2cc(C(=O)N3CCOCC3)ccc21	4189	6.0	8	4	13	3	-2
CC1CN(CCOCCOc2ccccc2-c2ccccc2)CC(C)O1 (stereo unspecified)	3997	5.6	-19	2	4	7	9
COC(C[C@H]1O[C@H]1C(=O)[C@H](C)OCc1ccccc1)OC	4025	nt	-21	-5	nt	nt	nt
CSc1ncccc1C(=O)OCC(=O)N1CCN(S(=O)(=O)c2ccc(C)cc2C)CC1	7608	0.4	-8	0	7	5	2
CN(C)N=C/C=C1\CC/C(=C\c2ccc(F)c(F)c2)C1=O	nt	1.3	nt	nt	3	9	-7
Cc1nc2ccccc2c(=O)n1/N=C/c1ccc(F)cc1	4136	nt	-32	-1	nt	nt	nt
Cn1c(SCC(=O)c2ccc3c(c2)OCCO3)nnc1C1CC1	9282	4.3	-31	-7	8	5	16
CCc1ccc(NC(=O)Cn2ccn(-c3cccc(Cl)c3)c(=O)c2=O)cc1	5873	1.8	-23	-9	4	nt	nt
Cc1ccc(C(c2sc3nc(C)nn3c2O)N2CCN(CCO)CC2)cc1 (stereo unspecified)	5312	-12	-23	2	0	2	14
O=C(CCC(=O)c1cccs1)c1cccs1	5771	3.1	-29	-2	2	4	9
CCN(CC(=O)Nc1c(F)cccc1F)C(=O)c1ccc(NC(=O)CC2SC(N3CCCC3)=NC2=O)cc1 (stereo unspecified)	6319	2.6	1	-3	7	4	7
CC(=O)Nc1ccc(/C=N/NC(=O)CNS(=O)(=O)c2ccccc2)cc1	2656	nt	-12	-4	nt	nt	nt
CCN1C(=O)/C(=C/C=C2\N(CC)c3cc(S(=O)(=O)N(C)C)ccc3N2c2ccccc2)SC1=S	6004	-0.5	27	30	11	22	4
Cc1ccc(CN(C)C(=O)c2cccc(S(=O)(=O)N3CCc4ccccc4C3)c2)o1	8243	2.5	-14	nt	2	2	1
Cc1cc(C(=O)COC(=O)/C=C/c2ccc(F)cc2)c(C)n1C	?	1.9	-14	nt	0	2	6
CC(C)c1nc(SCC(=O)N2CCCCCC2)c2c(=O)n(C)c(=O)n(C)c2n1	?	1.0	-3	14	2	10	7
CC(=O)c1ccc(Cl)c(Cl)c1Cl	5692	3.4	-11	nt	4	-3	11
O=C(CSc1nnc(-c2ccc(C(F)(F)F)cn2)o1)Nc1cccc(Cl)c1	nt	-4.5	-70	-5	11	-1	3
Cc1nc2ccc([N+](=O)[O-])cc2s1	4202	8.2	-20	-6	14	8	4
O=C1OCCC1Sc1nnc(-c2ccco2)o1 (stereo unspecified)	5889	3.3	-11	-3	-1	nt	nt
O=C1/C(=C/c2cccc([N+](=O)[O-])c2)CCc2ccccc21	2014	16	4	13	11	13	4
CN(C)CCNC(=O)C1CCCNC1=O (stereo unspecified)	22891*	2.0	6	2	0	1	4
CC(=O)c1ccc(N(CC(=O)NC2CCS(=O)(=O)C2)S(=O)(=O)c2ccc(Cl)cc2)cc1 (stereo unspecified)	4010	0.1	-16	nt	1	-2	2
Cc1cccc(C(=O)NC(=S)N2CCc3ccccc3C2)c1	2773	-2.2	-8	-5	8	15	-10
N#CC1=C(N)Oc2n[nH]c(-c3cccnc3)c2C1c1ccc([N+](=O)[O-])o1 (stereo unspecified)	3973	25	-16	-18	6	-3	8

Other entries.
SMILES	Autofluor counter	RN4220 kill	PrP UTR inh	BJeLR lethal	Sa ugtP lethal	Mtb hypoxia rep	Mtb hypoxia rep growth
CC(C)CNS(=O)(=O)c1ccc(S(=O)(=O)N2CCN(CCC#N)CC2)cc1	4872	1.8	-11	6	14	nt	nt
COc1ccc(CCNCc2ccccc2)cc1	3409	3.6	-26	-2	6	12	7
O=C(NN=Cc1cccnc1)c1cc2c(ccc3ccccc32)o1	nt	-7.4	nt	nt	-7	8	12
CCOc1cc(/C=C2\NC(=O)NC2=O)ccc1OC(C)C(=O)O (stereo unspecified)	4090	0.9	-19	-9	-2	-2	11
COC(=O)C1CCN(C(=O)Cc2c(OC)ccc3cc(Br)ccc23)CC1	4873	-1.5	-12	-5	14	-2	-1
CCC(CC)C(=O)Nc1cccc(-c2ccc3nncn3n2)c1	4976	1.6	-15	-1	4	3	0
Cc1ccc2cc(NC(=O)c3cccc(F)c3)ccc2n1	4152	8.0	-126	-1	-5	1	8
COC(=O)c1cc(-c2ccc(Br)cc2)on1	4589	4.0	-19	1	1	9	11
COc1ccccc1NC(=O)Nc1nnc(CC(=O)Nc2ccccc2C)s1	4379	-1.1	76*	-1	29	-2	1
CCN(CC)C(=O)CSc1nnc(SCc2ccc(Cl)cc2)s1	6405	2.8	-20	-5	15	12	3
O=C(CCC(=O)c1cccs1)OCC(=O)N1CCN(C(=O)c2ccco2)CC1	2999	-5.5	-8	-6	2	4	4
Cc1ccc(C=NN2CCN(Cc3ccc(Cl)cc3)CC2)o1	nt	-0.1	nt	nt	1	4	7
CCOC(=O)C1(S(=O)(=O)c2ccc(Cl)cc2)CCN(Cc2ccc(C)cc2)CC1	20535*	1.3	-6	-1	25	0	3
C=CCNC(=O)c1ccc(Sc2ccc(C)cc2)c([N+](=O)[O-])c1	2173	0.5	-4	-1	0	nt	nt
CC(Cn1cncn1)C(=O)N1CCN(S(=O)(=O)c2ccccc2)CC1 (stereo unspecified)	5386	0.3	-12	-3	4	-9	-3

Exported with bars between the fields: entries from further up
canonical_smiles | Autofluor counter | RN4220 kill | PrP UTR inh | BJeLR lethal | Sa ugtP lethal | Mtb hypoxia rep | Mtb hypoxia rep growth
CCOC(=O)C1(S(=O)(=O)c2ccc(Cl)cc2)CCN(Cc2ccc(C)cc2)CC1 | 20535* | 1.3 | -6 | -1 | 25 | 0 | 3
C=CCNC(=O)c1ccc(Sc2ccc(C)cc2)c([N+](=O)[O-])c1 | 2173 | 0.5 | -4 | -1 | 0 | nt | nt

Of the compounds above, these have a thiophene ring, fused or not:
SMILES	Autofluor counter	RN4220 kill	PrP UTR inh	BJeLR lethal	Sa ugtP lethal	Mtb hypoxia rep	Mtb hypoxia rep growth
Nc1c(C(=O)N2CCOCC2)sc2nc3c(cc12)CCCC3	5257	3.5	54	-12	10	2	-4
COc1ccccc1NS(=O)(=O)c1ccc(Br)s1	4519	13	-24	-1	-7	8	4
O=C(CCC(=O)c1cccs1)c1cccs1	5771	3.1	-29	-2	2	4	9
O=C(CCC(=O)c1cccs1)OCC(=O)N1CCN(C(=O)c2ccco2)CC1	2999	-5.5	-8	-6	2	4	4

Continuation:
SMILES	Autofluor counter	RN4220 kill	PrP UTR inh	BJeLR lethal	Sa ugtP lethal	Mtb hypoxia rep	Mtb hypoxia rep growth
CC(C)(C)c1ccc(OCC(=O)OCCNC(=O)c2cccnc2)cc1	2994	7.5	-16	-11	8	nt	nt
Cc1ccc(NC(=O)CCC(=O)NNC(=O)C(C)(C)C)c(C)c1	3659	5.1	-26	-2	7	10	3
CCCCOc1ccc(OCCCC)c2c1NC1(N2)C(=O)N(C(C)=O)c2ccccc21	5109	2.5	-6	5	2	nt	nt
Cc1cc2c(c(=O)n1Cc1ccc3c(c1)OCO3)C(c1cccnc1)C(C#N)=C(N)O2 (stereo unspecified)	20731*	-0.2	-10	-12	-4	1	7
S=C(Nc1ccc(Br)cc1Cl)N1CCN(c2ccccn2)CC1	5588	5.5	-14	-7	-1	12	4
COC(=O)CCCCC1SCC(NC(=O)c2ccccc2)C1Cl (stereo unspecified)	2278	2.9	-13	0	8	7	9
CC(NC(=O)COC(=O)CCC(=O)c1ccc(Cl)cc1)c1ccccc1 (stereo unspecified)	3484	0.3	-24	nt	6	4	8
O=C(CSc1nc2ccccc2[nH]1)Nc1c(F)cccc1F	2451	1.4	11	4	10	nt	nt
